Screening results as filed in PubChem BioAssay.
HPGD block – inhibitors of human 15-hydroxyprostaglandin dehydrogenase (HPGD); P15428; purified HPGD, NADH fluorescence kinetic, PGE2 substrate; Potency, µM, without a hit: at the top dose activity change, negative = inhibition, actives largely listed as inhibitors; 150,000 tested, 4.3% active; active = well fitted inhibition curve with a large enough effect (not every such curve was filed as active); inconclusive = small, poorly fitted or top-dose-only effect, or another doubt; inactive = no such curve, though single readings can be large or run the other way;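 further: top concentration of the series not given in the record; plate controls included wells without enzyme; inactives centre near -10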
Target sequence (P15428 whole entry, looked up): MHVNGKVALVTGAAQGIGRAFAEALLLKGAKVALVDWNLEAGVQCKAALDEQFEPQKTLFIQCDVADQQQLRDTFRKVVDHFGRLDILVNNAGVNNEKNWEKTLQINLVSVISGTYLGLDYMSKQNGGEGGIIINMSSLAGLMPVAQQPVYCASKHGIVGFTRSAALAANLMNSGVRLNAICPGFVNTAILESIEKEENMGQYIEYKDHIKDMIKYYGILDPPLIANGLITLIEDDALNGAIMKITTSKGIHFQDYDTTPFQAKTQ
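NADH formation kinetics: reaction with 30 uM PGE2 and 1 mM NAD+ (final), 20 nM enzyme, Tris-HCl pH 8 with Tween 20, after 15 min compound preincubation at room temperature. Fluorescence change, last versus first of five reads.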
* marks the source's active call; other numbers are inactive results; ? = inconclusive; & = joins results of further samples. On the % scale 0 is the no-effect control and ±100 the full control effect; potency means the concentration at half of the fitted maximal effect.

HPGD block | smiles
? | O=C(CN1C(=O)C2C3C=CC(C3)C2C1=O)Nc1ccc2nccnc2c1 (stereo unspecified)
-8% | Cc1cc(N2C(=O)CCC2=O)n(-c2ccccc2)n1
-18% | COC(=O)c1ccc(NC(=O)C2C3C=CC(O3)C2C(=O)O)cc1 (stereo unspecified)
5% | Nc1nc(NC(=O)c2cccs2)nn1-c1ccccc1
-2% | CN(C)S(=O)(=O)N1CCN(S(=O)(=O)c2ccccc2)CC1
-17% | CCOc1cc(/C=N/NC(=O)CCCC(=O)NC2CCCCC2)ccc1O
? | COc1cccc(-c2nnn(CC(=O)Nc3cc(OC)c(NC(=O)c4ccco4)cc3OC)n2)c1
25µM* | Cc1cccc(NC(=O)CCCCCN2C(=O)c3ccccc3C2=O)n1
-3% | O=C(NCc1ccco1)c1ccc2c(=O)n(-c3ccccc3)c(=S)[nH]c2c1
-22% | CC(C)c1ccccc1OCCCCCNCCO
18µM* | Cc1ccc(CC(=O)NCC(C)C)cc1
-14% | CCc1ccccc1OCc1nnc(N)s1
-11% | COc1ccccc1-n1c(SCC(=O)N(C)C2CCS(=O)(=O)C2)nc2ccccc2c1=O (stereo unspecified)
-1% | COCCNC(=O)CN(C(=O)Cn1nnc2ccccc21)c1ccc(C)c(F)c1
-24% | CCCn1nnc(NC(=O)c2sc3ccccc3c2Cl)n1
-20% | CCOC(=O)c1c(C)oc2c1c(C=NC1CCS(=O)(=O)C1)c(O)c1ccccc12 (stereo unspecified)
? | O=C(C1CCN(c2ccc(N3CCOCC3)nn2)CC1)N1CCN(c2ccc(F)cc2)CC1
-11% | COc1ccc(NS(=O)(=O)c2ccc(N3CCOCC3)c(NC(=O)c3ccccc3Cl)c2)cc1
-26% | O=C(/C=C/c1ccc(O)cc1)c1c(O)cc(O)cc1O
-5% | CCCC(=O)Nc1ccc(C#Cc2ccccc2)cc1
-28% | CN1/C(=C\C=Nc2ccc3ccccc3c2)C(C)(C)c2ccccc21
28µM* | O=C(COc1cccc2ccccc12)N/N=C/c1ccc(Sc2nc3ccccc3s2)o1
3.5µM* | COc1ccc(Cl)cc1Nc1cc(C)nc2nc(C)nn12
-14% | O=C(/C=C\c1ccco1)Nc1ccc(N2CCN(C(=O)c3ccccc3)CC2)cc1
-2% | CCOc1ccc(OCC(=O)OCn2c(SC)nnc(C)c2=O)cc1
-8% | CCOC(=O)c1ccc(NC(=O)CN2C(=O)C(C)SC(C)C2=O)cc1 (stereo unspecified)
40µM* | Cc1ccc(C(=O)NC(=S)NNC(=O)c2ccccc2[N+](=O)[O-])cc1
? | CC(C)C(=O)N1CCN(c2nc(-c3ccccc3)c3c(c2C#N)CCCC3)CC1
-3% | COc1ccc(S(=O)(=O)NCc2ccccc2Cl)cc1OC
? | CCc1cc(-c2n[nH]c(=S)n2N)n(C)n1
-5% | CCOC(=O)COc1c(C=O)cc(Br)cc1OC
4% | COCCn1c(-c2ccc(Cl)cc2)cnc1SCC(=O)NCCc1ccc(OC)c(OC)c1
28µM* | CSc1ccc(C(=S)N2CCN(C)CC2)cc1
-15% | O=C(Cc1cccs1)Nc1ccc(-c2nnn(CC(=O)N3CCOCC3)n2)cc1
-6% | CCOC(=O)C1CCN(C(=O)Cc2ccc(OC)c(OC)c2)CC1
-5%&-14% | COc1ccc2c(c1)OCC(Cc1ccc(OC)c(OC)c1)C2O (stereo unspecified)
4% | Cc1nn(-c2ccccc2)c(C)c1P(=O)(c1ccccc1)N(C)C (stereo unspecified)
? | Cc1c(C(=O)Nc2nccs2)sc2nc(-c3cccs3)cc(C(F)(F)F)c12
-28% | COc1cccc(-n2c(Cc3cc(=O)[nH]c(=O)[nH]3)nnc2SCC(=O)N2CCC(C)CC2)c1
-23% | Cc1ncc(CC(=O)n2cc(C(=O)c3cc(Cl)ccc3O)cn2)s1
-9% | Cc1ccc(S(=O)(=O)N2CCC(=O)N(CCOC(=O)Nc3ccc(F)cc3)CC2)cc1
-7% | Cc1cc(=O)oc(C)c1C(=O)NC1CC(C)(C)NC(C)(C)C1
-13% | Cc1ccc(CN(C(=O)c2c(F)cccc2F)C2CC(C)(C)NC(C)(C)C2)o1
-2% | Cc1cc(Cl)c(S(=O)(=O)NCc2cccnc2)cc1OCC(=O)NC1CCCCC1
-15% | COC(=O)c1sccc1NC(=S)N1CCCCC1C (stereo unspecified)
-26% | CC(C)c1nc2ccccc2c2nnc(SCC(=O)NCc3ccco3)n12
-4% | O=C(Cn1nnc(-c2ccccc2)n1)Nc1ccccc1N1CCOCC1
0% | ONC(=Nc1ccc(Cl)cc1)c1ccc(Cl)cc1
-16% | COC(=O)C1=C(C(=O)OC)SC(=C2C(=S)C(C)(C)N(C(=O)C3CC3)c3ccccc32)S1
-1% | O=C(Nc1cccc(C(=O)N2CCOCC2)c1)c1ccccc1
-17% | Clc1ccc(Cn2ncc3c(N4CCCCC4)ncnc32)c(Cl)c1
-1% | CCCCn1nnnc1SCC(=O)Nc1ccc2c(c1)OCO2
-12% | CC(=O)Nc1ccc(C(=O)CCl)cc1
-12% | CCC(=O)c1ccc(OCc2ccc(C(=O)OC)cc2)c(OC)c1
0% | COc1cccc(OC)c1C(=O)Nc1ccccc1C(=O)N1CCOCC1
22µM* | CC(C)c1ccc(NC(=S)NN(c2ccccc2)c2ccccc2)cc1
3% | CCC(C)C(NC)C(=O)O (stereo unspecified)
-27% | Nc1cc(C(=O)OCC(=O)NCC2CCCO2)ccc1Cl (stereo unspecified)
-10% | Cc1cccc(N(C)C(=O)COc2cc(=O)n(C)c3ccccc23)c1
-6% | CN(C)CCCOC(=O)c1ccc(Cl)cc1

Four entries from above, with each value named:
Cc1ncc(CC(=O)n2cc(C(=O)c3cc(Cl)ccc3O)cn2)s1
  HPGD block: -23%

Cc1ccc(S(=O)(=O)N2CCC(=O)N(CCOC(=O)Nc3ccc(F)cc3)CC2)cc1
  HPGD block: -9%

Cc1cc(=O)oc(C)c1C(=O)NC1CC(C)(C)NC(C)(C)C1
  HPGD block: -7%

Cc1ccc(CN(C(=O)c2c(F)cccc2F)C2CC(C)(C)NC(C)(C)C2)o1
  HPGD block: -13%

Following part
HPGD block | smiles
-4% | CC(OC(=O)C(NC(=O)c1ccco1)C(C)C)C(=O)Nc1ncc(Cl)cc1Cl (stereo unspecified)
-13% | C/C(N)=C(/C#N)C(=O)COC(=O)CSc1ccc2ccccc2c1
11µM* | FC(F)(F)c1cnc(Oc2ccc(-c3nnco3)cc2)c(Cl)c1
-8% | Cc1ccc(C2=NN(S(C)(=O)=O)C(c3ccc4c(c3)OCO4)C2)cc1 (stereo unspecified)
-8% | O=C(NNC(=O)C1CCN(S(=O)(=O)c2ccc(Cl)cc2)CC1)c1ccc(S(=O)(=O)N2CCCCC2)cc1
-12% | CC1Cc2ccccc2N1C(=O)COC(=O)CNC(=O)c1ccc(Br)o1 (stereo unspecified)
? | C#CCCCCCCC#CCN(C)C
-4% | N[C@H](C(=O)O)[C@H](OCc1ccccc1)C(=O)O
-1% | Cc1ccc(CNC(C)c2ccccc2)cc1 (stereo unspecified)
-24% | O=S(=O)(NCCc1csc(-c2cccnc2)n1)c1cccs1
-16% | Cc1nnc(NC(=O)CSc2ncnc3scc(-c4ccccc4)c23)s1
-5% | C/C(CC(=O)Nc1ccc(N(C)C)cc1)=N\NC(=O)c1cnccn1
-10% | CCOc1ccc(C2=NNC(c3cccs3)=Nc3ccc(OCC)cc32)cc1
-9% | COC(=O)[C@@]1(Cc2ccc(OC)cc2)[C@H]2c3cc(C(=O)N4CCCC4)n(CCc4c[nH]c5ccccc45)c3C[C@H]2CN1C(=O)c1ccccc1
? | CCCCn1c(SCC(=O)NCc2ccco2)nc2cc(S(N)(=O)=O)ccc21
0% | COc1ccc(NCc2nnc(SCC(=O)NCc3ccco3)n2-c2ccccc2OC)cc1
-3% | Cc1cc(OCC(=O)Nc2ccc(N3CCCC3)cc2)cc(C)c1Cl
? | Cc1nc(NC(=O)/C=C/c2ccccc2)sc1C(=O)Nc1cccc(Cl)c1
-9% | O=C(COc1ccc(Cl)cc1)NCCSCc1cccc(Cl)c1
-1% | CC(NC(=O)COC(=O)CC(c1ccccc1)c1ccccc1)c1ccccc1 (stereo unspecified)
-12% | Cc1cc2nc3c(nc2cc1C)C1(C(=O)N(C)C)CCC3(C)C1(C)C (stereo unspecified)
-21% | CC1(C)CC(=O)C=C(Nc2ccc3c(c2)OCCO3)C1
-10% | Cc1onc(-c2ccccc2)c1C(=O)N/N=C/c1cc2c(cc1Br)OCO2
1% | CCNc1nc(NCC)n2c(SCC(=O)N3CC4(C)CC3CC(C)(C)C4)nnc2n1 (stereo unspecified)
-14% | Cc1cccc(N=C2NN=C(c3ccc4c(c3)OCCO4)CS2)c1
-8% | COc1cc(NC(=O)CN2C(=O)NC(C)(CCC(C)C)C2=O)cc(OC)c1 (stereo unspecified)
-2% | CCCCc1ccc(NC(=S)N2CCCC(CO)C2)cc1 (stereo unspecified)
-14% | CC(C)C[C@@H]1NC(=O)[C@H](C(C)C)NC(=O)c2cc([N+](=O)[O-])cc(I)c2OCC[C@@H](C(N)=O)NC1=O
-1% | O=c1c2ccccc2[nH]c(=S)n1CCC1=CCCCC1
-9% | O=S(=O)(O)C(c1ccccc1)[C@@H](O)c1ccccc1 (stereo partly specified)

3 compounds from above, ordered by the value under HPGD block, rising:
molecule | HPGD block
CC1(C)CC(=O)C=C(Nc2ccc3c(c2)OCCO3)C1 | -21%
COc1cc(NC(=O)CN2C(=O)NC(C)(CCC(C)C)C2=O)cc(OC)c1 (stereo unspecified) | -8%
CCNc1nc(NCC)n2c(SCC(=O)N3CC4(C)CC3CC(C)(C)C4)nnc2n1 (stereo unspecified) | 1%

Part of the list above, in markdown:
| structure | HPGD block |
| --- | --- |
| COc1ccc(S(=O)(=O)NCc2ccccc2Cl)cc1OC | -3% |
| CCc1cc(-c2n[nH]c(=S)n2N)n(C)n1 | ? |

Remaining list, next part
HPGD block | smiles
11% | COc1cccc(-c2cc(C(=O)Nc3cc(C)n(Cc4ccc(Cl)cc4)n3)no2)c1
-16% | COc1ccc(Cl)cc1N1Cc2ccccc2C1
-2% | O=C1CC(N2CCN(Cc3ccccc3)CC2)C(=O)N1c1ccccc1 (stereo unspecified)
28µM* | Cc1ccc(-c2csc3ncn(-n4c(C)ccc4C)c(=O)c23)o1
-10% | CSc1nnc(-c2ccccc2)n1N
-9% | CCn1c(SC)nnc1-c1nnc(SC)n1CC
-13% | Cc1sc2c(=O)n3c(nc2c1C(=O)NCCCN1CCOCC1)CCCCC3
-9% | CCCCn1c(SCC(=O)Nc2cccc(C)n2)nnc1-c1ccco1
? | Cc1ccc(C2(C)NC(=O)N(CC(=O)NCc3cccs3)C2=O)cc1 (stereo unspecified)
-3% | C[C@]1(c2ccccc2)O[C@@H]2C[C@@H]3[C@@H]4CCC5=CC(=O)C=C[C@@]5(C)[C@]4(F)[C@H](O)C[C@]3(C)[C@@]2(C(=O)CO)O1
-3% | CC1CCc2c(sc3nc(CN4CCOCC4)nc(N4CCc5ccccc5C4)c23)C1 (stereo unspecified)
-6% | Cc1nc2ncnn2c(C)c1CCC(=O)N1CCN(C(=O)c2ccco2)CC1
-29% | COC(=O)CSc1nc(N)c2c3c(sc2n1)C(c1ccccc1)SC(c1ccccc1)C3 (stereo unspecified)
6% | O=C(CCCOc1ccccc1)Nc1ccc(S(=O)(=O)N2CCOCC2)cc1
? | COc1cc(OC)c2c(-c3cccc(-c4ccc(OC)c(F)c4)c3)cc(=O)oc2c1
-7% | CCOc1ccc(CCNC(=O)COC(=O)c2cccnc2OCC)cc1OCC
-11% | CCN(CC)c1ccc2cc(-c3nc4ccccc4[nH]3)c(=O)oc2c1
-16% | CSc1nc2ccc(NS(=O)(=O)c3c(Cl)cccc3Cl)cc2s1
-11% | COC(=O)Nc1ccc(S(=O)(=O)N(C)C)cc1
-11% | CCCOc1ccc(C2C(C(=O)c3ccco3)=C(O)C(=O)N2CCCn2ccnc2)cc1 (stereo unspecified)
? | Cc1ccc(Oc2ccc(S(=O)(=O)N3CCOCC3)cc2C(N)=O)c(-n2nc3ccccc3n2)c1
-8% | COc1ccc(Cl)cc1NC(=O)CC(C)=O
? | O=C(Nc1ccc(-c2nc3ccccc3o2)cc1)c1cccnc1
-1% | Nc1nc(-n2cnnc2)nn1-c1ccccc1
-4% | CCOC(=O)C1=C(C)N=C2SC(C)C(=O)N2C1c1cccc(F)c1 (stereo unspecified)
-1% | CC(C)CN1CC[C@@]2(CCCN(S(=O)(=O)c3ccccc3)C2)C1
-5% | O=C(c1nn(Cc2ccccc2)c(=O)c2ccccc12)N1CCN(C/C=C/c2ccccc2)CC1
? | COc1ccc(-c2nn(-c3ccccc3)cc2C(=O)O)cc1OC
-3% | CCCN(CCC)C(=O)CSc1nc2ccsc2c(=O)n1NC(=O)c1ccccc1
-9% | CCCCOc1ccc(C(=O)NCC2(c3ccccc3)CCOCC2)cc1
-5% | C/C(=N/NC(=O)c1ccoc1C)c1cccc(NC(=O)C(F)(F)F)c1
16µM* | COc1ccc(OC)c(Nc2ccc(C(=O)O)cc2[N+](=O)[O-])c1
-10% | O=S(=O)(c1ccccc1)N1N=C(c2cccs2)CC1c1ccc(F)cc1 (stereo unspecified)
-9%&-8% | COC(=O)N1[C@H](Cc2ccccc2)C=C[C@]1(C)C(=O)NCc1ccccn1
-7% | COC(=O)C(CCSC)NC(=O)Cn1ncc2c(=O)oc3ccc(C)cc3c21 (stereo unspecified)

Not all compounds are listed; the hit share may differ from the screen's.
